Source: PubChem (Broad Institute)
FGF22 binding: binders of human FGF22 protein, primary screen, FGF22 synaptogenesis inhibitor project, biophysical, thermal shift, single point; Fibroblast growth factor 22 (Homo sapiens), Q9HCT0; recombinant FGF22 thermal shift, SYPRO orange fluorescence; percent of sucrose octasulfate shift, DMSO zero; calls only at 9.99 µM; actives 1.5% (n = 340,000); AID 651658, 2012;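 active = melting point raised past a set limit in the mean and every replicate; three in four hits are not shown here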
Target sequence (Q9HCT0 whole entry, looked up): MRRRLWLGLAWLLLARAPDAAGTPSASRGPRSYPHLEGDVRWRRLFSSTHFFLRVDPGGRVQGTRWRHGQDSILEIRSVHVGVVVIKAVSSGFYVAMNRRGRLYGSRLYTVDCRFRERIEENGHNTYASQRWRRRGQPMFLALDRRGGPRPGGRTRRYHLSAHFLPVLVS
Calls only; i = inactive.

cpd	SMILES	FGF22 binding
1	Cc1noc(C)c1NC(=O)N[C@H]1CC[C@@H](CCNC(=O)C2CCOCC2)O[C@H]1CO	i
2	COc1ccc(NC(=O)Nc2ccc3c(c2)C(=O)N([C@@H](C)CO)C[C@@H](C)[C@@H](CN(C)S(=O)(=O)c2ccccc2)O3)cc1	i
3	C[C@@H]1CN([C@H](C)CO)C(=O)Cc2cc(NC(=O)Nc3ccc4c(c3)OCO4)ccc2O[C@@H]1CN(C)Cc1ccc(Cl)c(Cl)c1	i
4	CN1C(=O)c2cc(NC(=O)c3cnccn3)ccc2OC[C@@H]2O[C@H](CC(=O)N[C@@H]3CCN(Cc4ccccc4)C3)CC[C@@H]21	i
5	Cc1ccccc1S(=O)(=O)N1C[C@H](O)COC[C@@H]2O[C@@H](CC(=O)NCc3ccccc3Cl)CC[C@H]21	i
6	COc1ccccc1C#Cc1ccc([C@@H]2[C@@H](C#N)N(C(=O)C3CCC3)[C@@H]2CO)cc1	i
7	C[C@H](CO)N1C[C@H](C)[C@@H](CN(C)C(=O)CN(C)C)Oc2cc(C#CCC3CCCC3)ccc2S1(=O)=O	i
8	Cc1ccc(S(=O)(=O)NCC[C@H]2CC[C@H](NC(=O)CC3CC3)[C@@H](CO)O2)cc1	i
9	C[C@H](CO)N1C[C@H](C)[C@H](CN(C)S(=O)(=O)c2ccccc2)OCCCC[C@H](C)Oc2ccc(NC(=O)CCC(F)(F)F)cc2C1=O	i
10	COc1cccc(C#Cc2ccc([C@H]3[C@@H](CO)N(C(=O)c4ccccn4)[C@H]3C#N)cc2)c1	i
11	C[C@@H]1CN([C@@H](C)CO)C(=O)c2cccc(NS(=O)(=O)c3ccc(F)cc3)c2O[C@H]1CN(C)Cc1ccncc1	i
12	O=C(NCC[C@@H]1CC[C@H](NS(=O)(=O)c2ccc(F)cc2)[C@H](CO)O1)Nc1ccc(F)cc1	i
13	C[C@H]1CN([C@@H](C)CO)C(=O)c2cc(NC(=O)C3CC3)ccc2O[C@@H]1CN(C)C(=O)Nc1ccccc1	i
14	CO[C@@H]1CN(C)C(=O)c2ccc(NC(=O)Nc3ccccc3F)cc2OC[C@@H](C)N(Cc2ccccc2C(=O)O)C[C@H]1C	i
15	CCCNC(=O)C[C@@H]1CC[C@H]2[C@H](COc3ccc(NC(=O)Nc4ccccc4F)cc3C(=O)N2C)O1	i
16	CC(=O)N1CC2(C1)[C@H](c1ccccc1)[C@H](CO)N2Cc1ccccc1F	i
17	O=C(C[C@@H]1CC[C@@H]2[C@H](COC[C@H](O)CN2C(=O)Nc2ccc(F)cc2)O1)NC1CCC1	i
18	CO[C@@H]1CN(C)C(=O)c2cc(NC(=O)C3CCOCC3)ccc2OC[C@H](C)N(C)C[C@H]1C	i
19	COCC(=O)N1C[C@@H](C)[C@H](OC)CN(C)C(=O)c2ccc(NS(C)(=O)=O)cc2OC[C@H]1C	i
20	C[C@@H]1CCCCO[C@@H](CN(C)C(=O)NC2CCCCC2)[C@H](C)CN([C@@H](C)CO)C(=O)c2cc(NS(=O)(=O)c3cccs3)ccc2O1	i
21	Cc1ccc(S(=O)(=O)N(C)C[C@H]2Oc3ccc(NC(=O)CCC(F)(F)F)cc3C(=O)N([C@@H](C)CO)C[C@H]2C)cc1	i
22	CN1c2ccc(-c3ccccc3)cc2[C@@H]2[C@@H](CCN2C(=O)Cc2ccccc2)[C@H]1CO	i
23	CCC(=O)N1[C@@H]2c3ccc(C4=CCCC4)c(=O)n3C[C@H]1[C@H](CO)[C@H]2C(=O)NCC1CCCCC1	i
24	COC(=O)C[C@H]1CC[C@@H]2[C@@H](COc3ccc(NC(=O)c4cnccn4)cc3C(=O)N2C)O1	i
25	C[C@H]1CCCCO[C@H](CN(C)S(=O)(=O)c2ccc(Cl)cc2)[C@@H](C)CN([C@@H](C)CO)C(=O)c2cc(NC(=O)CCC(F)(F)F)ccc2O1	i
26	C[C@@H]1CN([C@@H](C)CO)C(=O)c2c(c3ccccc3n2C)-c2ccccc2CO[C@H]1CN(C)S(=O)(=O)c1cccc(C#N)c1	i
27	C[C@H]1CN([C@@H](C)CO)C(=O)c2ccccc2-c2ccccc2CO[C@H]1CN(C)S(=O)(=O)c1cccc(F)c1	i
28	CO[C@@H](CN(C)Cc1cc(F)ccc1F)[C@H](C)CN(C(=O)Nc1ccc(C(F)(F)F)cc1)[C@H](C)CO	i
29	COc1ccc(S(=O)(=O)N(C)C[C@@H]2Oc3c(NC(=O)Nc4ccc(C(F)(F)F)cc4)cccc3C(=O)N([C@H](C)CO)C[C@H]2C)cc1	i
30	O=C(C[C@@H]1C=C[C@H](NC(=O)Nc2ccc(C(F)(F)F)cc2)[C@H](CO)O1)NCCN1CCCC1	i
31	C[C@H]1CN([C@@H](C)CO)C(=O)c2cccc(NC(=O)c3ccncc3)c2O[C@@H]1CN(C)S(=O)(=O)c1cn(C)cn1	i
32	COc1ccc(S(=O)(=O)N(C)C[C@@H]2Oc3ccc(NC(=O)NC4CCCCC4)cc3C(=O)N([C@@H](C)CO)C[C@H]2C)cc1	i
33	COCC(=O)N1[C@@H]2c3cccc(=O)n3C[C@@H]2[C@@H](CO)[C@@H]1C(=O)NCc1ccccc1F	i
34	CC(=O)Nc1ccc2c(c1)C(=O)N(C)[C@@H]1CC[C@@H](CC(=O)NCC3CCCCC3)O[C@@H]1CO2	i
35	COCC(=O)N1[C@@H](C#N)[C@@H](c2ccc(-c3cccc(F)c3)cc2)[C@@H]1CO	i
36	COC(=O)[C@@H]1[C@@H](CO)[C@@H]2Cn3c(ccc(-c4ccncc4)c3=O)[C@@H]2N1CC1CCCCC1	i
37	Cc1noc(C)c1S(=O)(=O)N(C)C[C@H]1Oc2ccc(NC(=O)C3CCCCC3)cc2CC(=O)N([C@H](C)CO)C[C@@H]1C	i
38	COCCNC(=O)C[C@@H]1CC[C@@H]2[C@H](COC[C@@H](O)CN2Cc2cccc(-c3ccncc3)c2)O1	i
39	CC(C)NC(=O)N[C@H]1CC[C@@H](CC(=O)NCCCN(C)C)O[C@H]1CO	i
40	CCCNC(=O)Nc1ccc2c(c1)OC[C@H](C)N(Cc1ccc(-c3ccccn3)cc1)C[C@@H](C)[C@@H](OC)CN(C)C2=O	i
41	CC(C)NC(=O)Nc1ccc2c(c1)CC(=O)N([C@@H](C)CO)C[C@H](C)[C@H](CN(C)Cc1ccc(C(=O)Nc3ccccc3N)cc1)O2	i
42	C[C@@H]1CN([C@@H](C)CO)S(=O)(=O)c2ccc(C3=CCCC3)cc2O[C@@H]1CN(C)C(=O)c1ccccc1	i
43	COc1ccc(NC(=O)Nc2ccc3c(c2)CC(=O)N([C@H](C)CO)C[C@@H](C)[C@@H](CN(C)S(=O)(=O)c2ccc(Cl)cc2)O3)cc1	i
44	O=C(C[C@H]1CC[C@@H]2[C@H](COC[C@@H](O)CN2Cc2ccc(Cl)cc2)O1)NCc1ccccc1Cl	i
45	C[C@H](CO)N1C[C@H](C)[C@@H](CN(C)C)Oc2ccc(NS(=O)(=O)c3ccc(Cl)cc3)cc2CC1=O	i
46	CCCC#Cc1cnc2c(c1)C(=O)N([C@@H](C)CO)C[C@H](C)[C@@H](CN(C)S(=O)(=O)c1cn(C)cn1)O2	i
47	C[C@H](CO)N1C[C@H](C)[C@H](CN(C)C)OCc2ccccc2-c2ccccc2C1=O	i
48	C[C@@H]1CN([C@@H](C)CO)S(=O)(=O)c2ccc(-c3cccc(C#N)c3)cc2O[C@@H]1CN(C)CC1CC1	i
49	C[C@@H]1CN([C@@H](C)CO)C(=O)c2cc(NS(C)(=O)=O)ccc2O[C@@H](C)CCCCO[C@H]1CN(C)C	i
50	C[C@@H]1CN([C@@H](C)CO)C(=O)Cc2cc(NS(=O)(=O)c3ccccc3)ccc2O[C@H]1CN(C)Cc1ccc(C(F)(F)F)cc1	i
51	COc1cccc(S(=O)(=O)N[C@@H]2CC[C@@H](CCNC(=O)Nc3cc(F)ccc3F)O[C@H]2CO)c1	i
52	C[C@@H]1CN([C@H](C)CO)C(=O)CCCn2nncc2CO[C@H]1CN(C)S(=O)(=O)c1ccc(-c2ccccc2)cc1	i
53	C[C@@H]1CCCCO[C@@H](CN(C)S(=O)(=O)c2cccs2)[C@H](C)CN([C@@H](C)CO)C(=O)c2cc(NC(=O)C3CCCCC3)ccc2O1	i
54	C[C@@H]1CN([C@H](C)CO)C(=O)Cc2cc(NS(=O)(=O)c3cn(C)cn3)ccc2O[C@@H]1CN(C)C(=O)Nc1ccccc1	i
55	COCC#Cc1ccc([C@H]2[C@H]3CN(S(=O)(=O)c4ccccc4C)CCCCN3[C@H]2CO)cc1	i
56	CO[C@H]1CN(C)C(=O)c2ccc(NC(=O)CC(F)(F)F)cc2OC[C@@H](C)N(S(=O)(=O)c2cn(C)cn2)C[C@@H]1C	i
57	Cc1ccc(S(=O)(=O)N[C@@H]2CC[C@@H](CCNC(=O)C3CCCC3)O[C@H]2CO)cc1	i
58	C[C@@H]1CN([C@H](C)CO)C(=O)Cc2cc(NS(=O)(=O)c3ccccc3)ccc2O[C@@H]1CN(C)S(=O)(=O)c1ccccc1	i
59	CCN1[C@@H]2c3ccc(-c4ccccc4F)c(=O)n3C[C@H]1[C@H](CO)[C@H]2C(=O)NCCOC	i
60	COc1ccc2c3c(n(C)c2c1)[C@@H](CO)N(Cc1ccncc1)CC31CN(C(=O)C2CCC2)C1	i

Random excerpt: seven compounds from above, in no set order.
cpd	SMILES	FGF22 binding
48	C[C@@H]1CN([C@@H](C)CO)S(=O)(=O)c2ccc(-c3cccc(C#N)c3)cc2O[C@@H]1CN(C)CC1CC1	i
51	COc1cccc(S(=O)(=O)N[C@@H]2CC[C@@H](CCNC(=O)Nc3cc(F)ccc3F)O[C@H]2CO)c1	i
49	C[C@@H]1CN([C@@H](C)CO)C(=O)c2cc(NS(C)(=O)=O)ccc2O[C@@H](C)CCCCO[C@H]1CN(C)C	i
45	C[C@H](CO)N1C[C@H](C)[C@@H](CN(C)C)Oc2ccc(NS(=O)(=O)c3ccc(Cl)cc3)cc2CC1=O	i
52	C[C@@H]1CN([C@H](C)CO)C(=O)CCCn2nncc2CO[C@H]1CN(C)S(=O)(=O)c1ccc(-c2ccccc2)cc1	i
53	C[C@@H]1CCCCO[C@@H](CN(C)S(=O)(=O)c2cccs2)[C@H](C)CN([C@@H](C)CO)C(=O)c2cc(NC(=O)C3CCCCC3)ccc2O1	i
46	CCCC#Cc1cnc2c(c1)C(=O)N([C@@H](C)CO)C[C@H](C)[C@@H](CN(C)S(=O)(=O)c1cn(C)cn1)O2	i

(further entries)
cpd	SMILES	FGF22 binding
61	C[C@H]1CCCCO[C@H](CN(C)C(=O)Cc2ccccc2)[C@@H](C)CN([C@@H](C)CO)C(=O)c2cc(NS(=O)(=O)c3cn(C)cn3)ccc2O1	i
62	CCCN1C[C@H](C)[C@H](OC)CN(C)C(=O)c2ccc(NC(=O)COC)cc2OC[C@@H]1C	i
63	COc1ccc(S(=O)(=O)Nc2ccc3c(c2)C(=O)N([C@H](C)CO)C[C@H](C)[C@H](CN(C)C(=O)Nc2cccc4ccccc24)O3)cc1	i
64	CO[C@@H]1CN(C)C(=O)c2cc(NC(=O)Nc3c(C)noc3C)ccc2OC[C@@H](C)NC[C@@H]1C	i
65	C[C@@H]1CN([C@@H](C)CO)C(=O)c2cccc(NS(=O)(=O)c3ccc(Cl)cc3)c2O[C@@H]1CN(C)Cc1ccc(C(=O)Nc2ccccc2N)cc1	i
66	COc1ccccc1C(=O)Nc1ccc2c(c1)OC[C@H](C)N(CC1CC1)C[C@H](C)[C@@H](OC)CN(C)C2=O	i
67	COCC(=O)NC[C@@H]1[C@@H](c2ccccc2)[C@H](CO)N1C(=O)c1ccccc1	i
68	O=C(C[C@H]1C[C@@H]2c3cc(NC(=O)C4CCC4)ccc3O[C@@H]2[C@@H](CO)O1)NCc1ccc(-c2ccccc2)cc1	i
69	C[C@H](CO)N1C[C@H](C)[C@@H](CN(C)C(=O)CCCN(C)C)OCCCC[C@H](C)Oc2ccc(NS(C)(=O)=O)cc2C1=O	i
70	C[C@H]1CN([C@@H](C)CO)S(=O)(=O)c2ccc(-c3ccncc3)cc2O[C@H]1CN(C)S(C)(=O)=O	i
71	C[C@@H]1CN([C@@H](C)CO)C(=O)c2cc(C#CC3(O)CCCC3)cnc2O[C@H]1CN(C)Cc1ccccn1	i
72	O=C(CN1CCOCC1)N[C@H]1CC[C@H](CCn2cc(C3CCCCC3)nn2)O[C@H]1CO	i
73	O=C(Nc1ccccc1F)N[C@H]1CC[C@@H](CC(=O)N2CCCCC2)O[C@@H]1CO	i
74	CO[C@@H]1CN(C)C(=O)c2cc(NS(=O)(=O)CC(F)(F)F)ccc2OC[C@H](C)N(Cc2cccnc2)C[C@H]1C	i
75	C[C@H]1CN([C@@H](C)CO)C(=O)CCCn2nncc2CO[C@@H]1CN(C)C(=O)OCc1ccccc1	i
76	COCCNC(=O)[C@@H]1[C@@H](CO)[C@@H]2Cn3c(ccc(-c4cccc(F)c4)c3=O)[C@H]1N2C(=O)NC(C)C	i
77	O=C(C[C@@H]1C[C@@H]2c3cc(NC(=O)Nc4ccccc4F)ccc3O[C@@H]2[C@@H](CO)O1)NCC1CC1	i
78	O=C(NC[C@@H]1[C@H](c2ccccc2)[C@@H](CO)N1C(=O)C1CC1)NC1CCCC1	i
79	CCCC(=O)N1CCC2(CC1)CN(C(=O)c1ccc(F)cc1)[C@H](CO)c1[nH]c3cc(OC)ccc3c12	i
80	CCC(=O)N1C[C@@H](C)[C@@H](OC)CN(C)C(=O)c2ccc(NC(=O)C3CC3)cc2OC[C@H]1C	i
81	COCC(=O)N(C)C[C@@H]1Oc2cc(-c3ccncc3)ccc2S(=O)(=O)N([C@H](C)CO)C[C@H]1C	i
82	O=C(Nc1ccc(Cl)c(Cl)c1)N[C@H]1CC[C@H](CCn2cc(C3CCCCC3)nn2)O[C@H]1CO	i
83	CO[C@H]1CN(C)C(=O)c2ccc(NC(=O)Cc3ccccc3)cc2OC[C@@H](C)N(C(=O)c2ccccc2F)C[C@H]1C	i

3 structures already listed, ordered by formula weight, descending:
cpd	SMILES	FGF22 binding
83	CO[C@H]1CN(C)C(=O)c2ccc(NC(=O)Cc3ccccc3)cc2OC[C@@H](C)N(C(=O)c2ccccc2F)C[C@H]1C	i
71	C[C@@H]1CN([C@@H](C)CO)C(=O)c2cc(C#CC3(O)CCCC3)cnc2O[C@H]1CN(C)Cc1ccccn1	i
72	O=C(CN1CCOCC1)N[C@H]1CC[C@H](CCn2cc(C3CCCCC3)nn2)O[C@H]1CO	i

The list is partial (hit frequency here may not be typical).
